# High-throughput results from PubChem.
# RGS4 act: RGS4 potentiation or activation. hit rate 0.92% among 310,000. HEK293 M3R/inducible RGS4, carbachol calcium flux Fluo4; hits give low values. AID 463111. B-score at 10 µM;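 active = B-score of the integrated calcium signal more than 4 SD below the library mean, with starting fluorescence not abnormally high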;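 note: negative B-score means reduced calcium response which marks RGS4 activation or potentiation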
#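 Test system: HEK293 cells with stable M3R and inducible RGS4; also added: carbachol at ECmax as muscarinic agonist stimulus; schedule: dye loading 30 min 37 °C, buffer rest 30 min RT; technique: kinetic calcium fluorescence imaging with Fluo4-AM dye, 2 µM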
# MrgX1 allo act: allosterically activates human MrgX1 receptor signaling. hit rate 0.63% among 310,000. B-score at 10 µM. Q96LB2. MrgX1-HEK293, Fluo-4 calcium flux, FDSS; hits give high values;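 active = plate-corrected calcium response at least 3 library SD above typical, normal starting fluorescence, not activating the receptor alone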;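 note: compound read alongside a low EC10 to EC30 dose of BAM8-22 agonist; peak minus trough fluorescence over baseline measured at the second addition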
# Platelet DG rel: platelet dense granule release activity; human platelet-rich plasma, SFLLRN dense granule ATP release, luminescence; inhibition, %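 (compounds screened at 7.5 µM in platelet-rich plasma)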; hit rate 0.22% among 300,000;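 active = mean replicate score, as percent of positive control, at or above 50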
# TRPC6 inhibitor: mouse TRPC6 channel inhibition; AID 2553; B-score at 10 µM; hit rate 1.1% among 310,000; HEK293-TRPC6, membrane potential dye, ACh-evoked depolarization; hits give low values;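 active = B-score under library mean minus 3 SD, initial fluorescence not abnormally high, positive integrated signal ratio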;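 note: B-score derived from integrated fluorescence ratio over the kinetic read; more negative B-score means stronger inhibition of depolarization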
# TRPC6 act: mouse TRPC6 channel activation | Q61143 | HEK293-TRPC6 membrane potential dye fluorescence; hits give high values | B-score at 10 µM | hit rate 0.13% among 310,000 | AID 2550;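 active = B-score of the integrated fluorescence ratio above library mean plus 3 SD, and starting fluorescence ratio within library mean plus 5 SD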;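 note: higher score means more depolarization so channel activation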
# SKKanGAS inh: blocks kanamycin growth of S. pyogenes SKKanGAS strain. BacTiter-Glo, 6 h. inhibition, % at 7.5 µM. hit rate 1.3% among 300,000. AID 1662;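 active = mean replicate score, as percent of positive control median, at least 50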;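 note: strain carries kanamycin resistance gene driven by streptokinase promoter and grows in 40 µg/ml kanamycin; loss of luminescence reflects streptokinase promoter inhibition or plain growth inhibition; 0% = median of DMSO wells and 100% = positive control at its reference dose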
# TRPC4 block: TRPC4 (mouse) channel inhibition; Q9QUQ5; HEK293 TRPC4beta/mu-opioid, DAMGO-evoked Fluo4 calcium flux; hits give low values; B-score at 10 µM; hit rate 0.39% among 300,000; AID 2247;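 active = B-score over 3 SD under the library average, no early fluorescence shift, positive overall ratio signal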
# Target sequence (Q9QUQ5 whole entry, looked up): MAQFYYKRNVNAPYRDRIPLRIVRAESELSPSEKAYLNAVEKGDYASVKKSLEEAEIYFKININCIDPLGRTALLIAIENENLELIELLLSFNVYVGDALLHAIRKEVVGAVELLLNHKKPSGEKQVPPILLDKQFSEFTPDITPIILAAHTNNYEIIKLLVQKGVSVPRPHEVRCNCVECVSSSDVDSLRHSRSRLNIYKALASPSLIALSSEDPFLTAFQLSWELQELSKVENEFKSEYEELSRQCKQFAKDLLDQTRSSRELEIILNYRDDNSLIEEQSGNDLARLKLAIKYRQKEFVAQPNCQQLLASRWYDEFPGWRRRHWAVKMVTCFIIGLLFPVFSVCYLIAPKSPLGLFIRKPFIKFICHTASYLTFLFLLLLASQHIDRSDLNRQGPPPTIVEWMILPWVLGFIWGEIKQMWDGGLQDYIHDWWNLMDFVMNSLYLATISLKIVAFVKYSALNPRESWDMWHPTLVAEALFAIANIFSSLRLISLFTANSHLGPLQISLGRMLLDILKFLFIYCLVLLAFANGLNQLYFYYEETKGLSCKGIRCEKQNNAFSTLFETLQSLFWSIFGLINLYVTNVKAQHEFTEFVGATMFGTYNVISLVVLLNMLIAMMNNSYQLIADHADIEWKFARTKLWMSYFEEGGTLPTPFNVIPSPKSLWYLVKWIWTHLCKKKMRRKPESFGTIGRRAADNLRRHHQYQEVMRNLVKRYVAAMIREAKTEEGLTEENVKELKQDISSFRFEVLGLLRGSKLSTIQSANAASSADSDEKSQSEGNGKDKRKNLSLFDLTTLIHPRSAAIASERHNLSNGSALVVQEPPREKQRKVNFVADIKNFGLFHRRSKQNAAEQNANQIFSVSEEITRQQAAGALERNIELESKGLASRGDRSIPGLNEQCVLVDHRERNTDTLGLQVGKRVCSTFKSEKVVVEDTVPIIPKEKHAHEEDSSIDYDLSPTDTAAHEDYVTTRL
#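 Material: HEK293 cells with stable TRPC4beta plus mu-opioid receptor expression / Probe or stimulus: DAMGO in two steps, submaximal then maximal / Compound: single concentration per test compound / Technique: kinetic Fluo4 fluorescence imaging of calcium influx / Read-out: per-well B score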
# MrgX1 antagonist: blocks BAM8-22 activation of human MrgX1 receptor; hit rate 1.3% among 310,000; AID 588676; B-score at 10 µM; MRGX1-HEK293 calcium flux, Fluo-4, BAM8-22 antagonism; hits give low values;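 active = calcium-response B-score plate-corrected more than 3 library SD below zero, starting fluorescence within 5 deviations, no agonist response on first addition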;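 note: peak minus trough fluorescence over baseline after final BAM8-22 challenge near maximal dose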
# MrgX1 ag: activates human MrgX1 receptor signaling | Q96LB2 | MrgX1-HEK293 cells, Fluo-4 calcium fluorescence, agonist mode; hits give high values | B-score at 10 µM | hit rate 0.44% among 310,000;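 active = calcium response B-score plate-corrected fluorescence ratio at least 3 library SD, with starting fluorescence B-score inside 5 SD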
#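 Material – MrgX1-expressing HEK293 cells · Input – 15,000 cells seeded per well · Dosing – compound as first of three additions · Times – overnight seeding, then 1 h dark dye loading · Measured by – kinetic Fluo-4 NW fluorescence of intracellular calcium · Read-out – B-scored fluorescence response ratio · Benchmarks – positive and negative control wells on each plate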
# RGS4 block: inhibitors of human RGS4; hit rate 0.45% among 310,000; B-score at 10 µM; HEK293 M3R/RGS4 inducible, Fluo-4 calcium flux; hits give high values; triggered by carbachol at its EC20;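 active = B-score, a plate-corrected calcium signal, over three deviations above library mean, with baseline fluorescence within five deviations of library mean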;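 note: RGS4 expression induced by doxycycline in cells with stable M3 receptor; B-score is computed from the integrated fluorescence ratio over baseline after carbachol; higher B-score means a larger calcium signal and so more RGS4 inhibition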
# Starred values were filed as active, the others as inactive; i = inactive; / = not tested or not shown; & = joins results of further samples. These rows are one share of the data. The share of hits here may be higher or lower than overall.
SMILES,RGS4 act,MrgX1 allo act,Platelet DG rel,TRPC6 inhibitor,TRPC6 act,SKKanGAS inh,TRPC4 block,MrgX1 antagonist,MrgX1 ag,RGS4 block
O=C1C(=O)N(CCN2CCOCC2)C(c2ccccn2)/C1=C(/O)c1ccccc1 (stereo not drawn),i,i,2,i,i,9,i,i,i,i
Cc1cccc(OCc2nc(C)cc(=O)[nH]2)c1,/,/,6,/,/,0,/,/,/,/
COc1ccc(CCN(C)CCc2ccc(OC)c(OC)c2)cc1OC,i,i,0,i,i,1,i,i,i,i
COC(=O)c1c(C)[nH]c(C(=O)OCc2ccc(F)cc2)c1C,i,i,-13,i,i,-6,i,i,i,i
C=CCOc1nc2c(c(=O)n(Cc3ccc(Cl)cc3)c(=O)n2C)n1C,i,i,9,i,i,8,i,i,i,i
Cc1cc(N2C(=O)C(=O)/C(=C(/O)c3ccccc3)C2c2cccc(Br)c2)no1 (stereo not drawn),i,i,1,i,i,17,i,i,i,i
COC(=O)CN1C2(C#N)CCCCC2CC2CCCCC21C#N (stereo not drawn),i,i,-8,i,i,-1,i,i,i,i
c1ccc(CN2CCN(c3ncnc4c3[nH]c3ccccc34)CC2)cc1,i,i,-25,i,i,6,i,-6.1*,i,i
Nc1nc(N)c2nc(-c3ccccc3)c(N)nc2n1,i,i,16,i,i,-9,i,i,i,i
Cc1cc(C)n(CC(=O)n2nc(C)cc2C)n1,i,i,-2,i,i,-1,i,i,i,i
C(=N\n1cnnc1)/c1cccnc1,i,i,-5,i,i,-3,i,-4.6*,i,i
CC1=C(/C=C/C(C)=C/C=C/C(C)=C/C(=O)O)C(C)(C)CCC1,i,i,-3,i,i,0,i,i,i,i
CCC(=O)Nc1nc2ccccc2n1Cc1ccccc1C,i,i,-7,i,i,62*,i,i,i,i
CC(C)Nc1nc(NC(C)C)nc(N(C)n2cnnc2)n1,i,i,10,i,i,7,i,i,i,i
Cc1ccc(-n2ncc3c(NCCCN4CCCC4=O)ncnc32)c(C)c1,i,i,0,i,i,4,i,i,i,i
CC1CCc2cc(F)cc3c(O)c(C(=O)NCc4ccco4)c(=O)n1c23 (stereo not drawn),i,/,4,i,i,19,i,/,/,i
N#Cc1nc(COc2ccc(Br)cc2)oc1NCCN1CCOCC1,i,i,2,i,i,-7,i,i,i,i
Cc1ccc(S(=O)(=O)NC(=O)NN2CCCCCC2)cc1,i,i,5,i,i,-3,i,i,i,i
CCOc1ccc(N=C(NC#N)SCC(=O)NC2CC2)cc1,i,i,5,i,i,3,i,i,i,i
CCCCOc1cc(C(=O)NCCN(CC)CC)c2ccccc2n1,i,i,3&-3,i,i,3&1,i,i,i,i
CCN1CCCCC(=N/O)/C(=N/O)CCCC1,i,i,6,i,i,-3,i,i,i,i
CCCC(=O)Nc1ccc(OCC(O)CNC(C)C)c(C(C)=O)c1 (stereo not drawn),i,i,2,i,i,-1,i,i,i,i
Cn1c(N2CCOCC2)nc2c1c(=O)n(Cc1ccc(Cl)cc1)c(=O)n2C,i,i,4,i,i,13,i,i,i,i
CCCCNC(=O)C(C#N)c1nc2ccccc2nc1N1CCN(c2ccccc2F)CC1 (stereo not drawn),i,i,4,i,i,-1,i,i,i,i
CCCCc1c(C)nn(-c2nnc3c4ccccc4n(C)c3n2)c1C,i,i,3,i,i,29,i,i,i,i
Cc1nc2c(=O)n(C)c(=O)[nH]c2n1Cc1ccccc1,i,i,4,i,i,1,i,i,i,i
CC(CN1c2ccccc2Sc2ccccc21)N(C)C (stereo not drawn),i,i,-3,-6.1*,i,3,i,i,i,i
CCN1CCc2c(C#N)c(NCc3ccccc3)nc(NCCO)c2C1,i,i,0,i,i,-2,i,i,i,i
Cc1cc(C)n(CC2CC(=O)N(c3ccc(C)c(Cl)c3)C2=O)n1 (stereo not drawn),i,i,-15,i,i,-12,i,i,i,i
CN(C)c1nc2n(c(=S)n1)CCS2,i,i,-2,i,i,0,i,i,i,i
Clc1ccccc1-c1nn2c(-c3ccccn3)nnc2s1,i,i,0,i,i,9,i,i,i,i
Cc1c(Cl)c(C(F)(F)F)nn1CC(=O)N1CCSCC1,i,i,-2,i,i,-3,i,i,i,i
CCN1CCCC1CNC(=O)c1cc(S(N)(=O)=O)ccc1OC (stereo not drawn),i,i,-2,i,i,-1,i,i,i,i
CSc1nc2sc3c(c2c(=O)n1C1CCCCC1)CCN(C)C3,i,i,-4,i,i,0,i,i,i,i
Cc1ccc(OCC(=O)N2CCC(N3CCCCCC3)CC2)cc1,i,i,-4,i,i,6,i,i,i,i
Cc1cc(=O)oc(C)c1C(=O)NC12CC3CC(CC(C3)C1)C2,i,i,2,i,i,11,i,i,i,i
O=S1(=O)CCN(Cc2ccccn2)CC1,i,i,7,i,i,2,i,i,i,i
Cc1cc(=O)oc(C)c1C(=O)N[C@@H]1CCCCNC1=O,i,i,0,i,i,3,i,i,i,i
Cc1cc(=O)oc2ccc(OCC(=O)N3CCc4ccccc43)cc12,i,i,3,i,i,0,i,i,i,i
CCOC(=O)/C(C#N)=C1/SC(CCO)C(=O)N1c1ccccc1 (stereo not drawn),i,i,/,i,i,-1,i,i,i,i
Cc1ccccc1N1C(=O)C2ON(c3ccccc3)C(c3ccncc3)C2C1=O (stereo not drawn),i,i,0,i,i,4,i,i,i,i
NC1=NC(c2ccc(Cl)cc2)N(c2ccc(S(N)(=O)=O)cc2)C(N)=N1 (stereo not drawn),i,i,-2,i,i,2,i,i,i,i
COc1ccc(C(=O)c2oc3nc(C)cc(C)c3c2N)cc1,i,i,2,i,i,7,i,i,i,i
COc1cc(CNC(=O)CCCC/C=C/C(C)C)ccc1O,/,i,/,/,/,/,/,i,i,/
N#Cc1nc(COc2ccc(Br)cc2)oc1N1CCCC1,i,i,-7,i,i,-6,i,i,i,i
O=C(O)COCCN1CCN([C@H](c2ccccc2)c2ccc(Cl)cc2)CC1,i,i,-2,i,i,-4,i,i,i,i
Clc1ccc(SCc2cn3ccsc3n2)cc1,i,i,-9,i,i,18,i,i,i,i
CC1(C)CC(=O)C2=C(C1)N(Cc1ccco1)C(=O)C2(NC(=O)c1cccnc1)C(F)(F)F (stereo not drawn),i,i,1,i,i,1,i,i,i,i
CCOc1ccc2nc(SCC(=O)Nc3ncccn3)[nH]c2c1,i,i,-1,i,i,-4,i,i,i,i
COC(=O)C(NC(C)=O)(Nc1ccccc1)C(=O)OC,i,i,6,i,i,-3,i,i,i,i
# Continuation.
SMILES,RGS4 act,MrgX1 allo act,Platelet DG rel,TRPC6 inhibitor,TRPC6 act,SKKanGAS inh,TRPC4 block,MrgX1 antagonist,MrgX1 ag,RGS4 block
Cc1cc2cc3c(C)cc(=O)oc3c(C)c2o1,i,i,4,i,i,1,i,i,i,i
Cn1c(Cl)cnc1C1CC(=O)c2cc(Cl)ccc2O1 (stereo not drawn),i,i,0,i,i,-11,i,i,i,i
COC(=O)c1cc(Br)c(=O)n(-c2nccs2)c1,i,i,4,i,i,-4,/,i,i,i
CCCCOc1ccc(C(=O)CCN2CCCCC2)cc1,i,7.1*,-3,i,i,-5,i,i,i,i
O=C(O)C[C@@H](O)C(=O)O,i,i,1,i,i,-5,i,i,i,i
COCC(C)Nc1ncnc2c1cnn2-c1ccc(Cl)cc1 (stereo not drawn),i,i,5,i,i,0,i,i,i,i
CCCCCOc1ccccc1C(=O)NCCCC(=O)O,i,i,-7,i,i,-1,i,i,i,i
CCN(c1nc(N)c(C(=O)N=C(N)N)nc1Cl)C(C)C,i,i,3,i,i,6,i,i,36*,i
CC1(C)S[C@@H]2[C@H](NC(=O)[C@H](N)c3ccccc3)C(=O)N2[C@H]1C(=O)O,i,i,1&0,i,i,17&40,i,i,i,i
NCCS(=O)(=O)O,i,i,-2,i,i,-3,i,i,i,i
O=C(CC(c1ccco1)S(=O)(=O)c1ccccc1)c1ccc(F)cc1 (stereo not drawn),i,i,9,i,i,0,i,i,i,i
Oc1ccc2ccccc2c1C=NC12CN3CCN(CN(C3)C1)C2,i,i,-4,i,i,3,i,i,i,i
O=C(O)/C=C\C(=O)O,/,i,/,/,/,/,/,i,i,/
CC(C)N1CCc2c(sc(N)c2C#N)C1,i,i,-4,i,i,0,i,i,i,i
CC12CCC(=O)N1c1c(sc3nc(N4CCOCC4)c4c(c13)CCCC4)C(=O)N2 (stereo not drawn),i,i,-6,i,i,12,i,i,i,i
CCCCCOc1ccccc1C(=O)NCC(=O)O,i,i,-3,i,i,-2,i,i,i,i
NC[C@H]1O[C@H](O[C@H]2[C@H](O)[C@@H](O[C@H]3O[C@H](CO)[C@@H](O)[C@H](N)[C@H]3O)[C@H](N)C[C@@H]2N)[C@H](N)C[C@@H]1O,i,i,-5,i,i,0,i,i,i,i
C=CCn1c(-c2ccccc2)n[nH]c1=S,i,i,-1,i,i,0,i,i,i,i
COC(=O)c1ccc(=O)n(Cc2ccco2)c1,i,i,-19,i,i,0,i,i,i,i
O=C(COc1ccc(F)cc1)OCCN1CCOCC1,i,i,-2,i,i,-2,i,i,i,i
CC(C)(C)n1nc(C2CC2)cc1NC(=O)Nc1ccc(Cl)cc1,i,i,-4,i,i,0,i,i,i,i
CN/C(=C/[N+](=O)[O-])NCCSCc1ccc(CN(C)C)o1,i,i,14,i,i,-2,i,i,i,i
O=C1CCC(c2ccccc2)(c2ccccc2)CC1,i,i,-1,i,i,-1,i,i,i,i
CC(=O)N1CCN(C2c3cccc4cccc(c34)C2NS(=O)(=O)c2ccccc2)CC1 (stereo not drawn),i,i,-3,i,i,-6,i,i,i,i
Cn1c(=O)c2c(nc(N3CCC(C(N)=O)CC3)n2CCSc2nc3ccccc3s2)n(C)c1=O,i,i,-5,i,i,0,i,i,i,i

# Exported bar-delimited: part of the list above.
compound | RGS4 act | MrgX1 allo act | Platelet DG rel | TRPC6 inhibitor | TRPC6 act | SKKanGAS inh | TRPC4 block | MrgX1 antagonist | MrgX1 ag | RGS4 block
CC(C)(C)n1nc(C2CC2)cc1NC(=O)Nc1ccc(Cl)cc1 | i | i | -4 | i | i | 0 | i | i | i | i
CN/C(=C/[N+](=O)[O-])NCCSCc1ccc(CN(C)C)o1 | i | i | 14 | i | i | -2 | i | i | i | i
CC(=O)N1CCN(C2c3cccc4cccc(c34)C2NS(=O)(=O)c2ccccc2)CC1 (stereo not drawn) | i | i | -3 | i | i | -6 | i | i | i | i
Cn1c(=O)c2c(nc(N3CCC(C(N)=O)CC3)n2CCSc2nc3ccccc3s2)n(C)c1=O | i | i | -5 | i | i | 0 | i | i | i | i
